High-throughput results as filed in PubChem.
hNpr1 antagonist: blocks ANP-stimulated signaling of human Npr1 receptor. Potency, µM (doses to about 46.3 µM), without a hit: at the top dose activity change, negative = inhibition, hits mostly inhibitors. 1.6% of 76,000 active. HEK293 hNpr1 GloSensor cGMP, ANP-stimulated luminescence. P16066; active = well fitted inhibition curve with a large enough effect; inconclusive = small, poorly fitted or top-dose-only effect; inactive = no such curve, though single readings can be large or run the other way;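 further: nearly all actives have a fitted effect of over 60% in size; nearly all hits also lower the signal before the agonist is added; a reference antagonist and vehicle were the controls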
Target sequence (P16066 whole entry, looked up): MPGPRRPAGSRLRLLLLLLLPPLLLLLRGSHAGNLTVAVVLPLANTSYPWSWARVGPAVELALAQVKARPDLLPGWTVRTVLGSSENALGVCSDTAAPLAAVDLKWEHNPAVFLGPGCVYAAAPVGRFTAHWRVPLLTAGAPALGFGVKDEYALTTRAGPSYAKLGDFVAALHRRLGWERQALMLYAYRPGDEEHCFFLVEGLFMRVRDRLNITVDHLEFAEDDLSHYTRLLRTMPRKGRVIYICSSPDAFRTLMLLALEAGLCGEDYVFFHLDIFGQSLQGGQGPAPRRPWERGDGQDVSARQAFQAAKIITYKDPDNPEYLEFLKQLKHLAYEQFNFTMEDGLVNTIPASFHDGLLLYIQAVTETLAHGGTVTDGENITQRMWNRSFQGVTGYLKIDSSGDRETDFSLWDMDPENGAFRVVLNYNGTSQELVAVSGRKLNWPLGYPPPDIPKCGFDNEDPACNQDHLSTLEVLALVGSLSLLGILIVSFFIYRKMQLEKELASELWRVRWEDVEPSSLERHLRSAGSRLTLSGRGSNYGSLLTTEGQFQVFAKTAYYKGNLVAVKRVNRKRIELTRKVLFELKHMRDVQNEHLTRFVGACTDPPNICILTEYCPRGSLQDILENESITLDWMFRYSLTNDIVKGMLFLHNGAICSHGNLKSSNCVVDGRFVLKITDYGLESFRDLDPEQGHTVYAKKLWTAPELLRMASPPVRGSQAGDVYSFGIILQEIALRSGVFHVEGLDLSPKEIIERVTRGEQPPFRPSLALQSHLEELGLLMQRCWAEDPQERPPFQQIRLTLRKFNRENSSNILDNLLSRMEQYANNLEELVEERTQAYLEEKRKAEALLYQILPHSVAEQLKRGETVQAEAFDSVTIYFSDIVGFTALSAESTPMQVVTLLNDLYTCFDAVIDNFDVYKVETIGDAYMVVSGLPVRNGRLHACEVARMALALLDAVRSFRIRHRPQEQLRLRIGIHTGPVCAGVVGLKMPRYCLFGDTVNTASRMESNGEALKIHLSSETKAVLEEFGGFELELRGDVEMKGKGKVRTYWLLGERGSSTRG
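HEK293 cells stably expressing human Npr1 and cGMP GloSensor pGS-40F, loaded 2 h with 2% GloSensor reagent, given compound 30 min at room temperature. Luminescence read before and 20 min after 0.1 nM hNppA.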
* = called active by the depositor; u = inconclusive; [ ] = remark or other dose. On the % scale 0 is the no-effect control and ±100 the full control effect; potency means the concentration at half of the fitted maximal effect. This is a subset, so the mix of outcomes need not match the whole.

SMILES	hNpr1 antagonist
CNC(=O)N1CCC(C2CCN(C(=O)c3cscn3)C2)CC1 (stereo unspecified)	1%
COc1ccccc1-c1ccc2ncc(Nc3ccc4c(c3)OCO4)n2n1	-4%[70.6 µM]
Fc1ccccc1CN1CCC[C@H]1c1nc(-c2ccnc(N3CCOCC3)c2)no1	-24%[70.6 µM]
CN(C)C[C@@H]1CN(C2CCOCC2)C[C@H]1NC(=O)c1ccnn1C	1%
CCOC(=O)C1CCCCC(=O)N1 (stereo unspecified)	0%
Cc1nc(C2CCCN(C(=O)Cc3ccc(S(C)(=O)=O)cc3)C2)n[nH]1 (stereo unspecified)	3%
Cc1noc(-c2cn(C3CCN(C(=O)c4cccc5[nH]ccc45)CC3)nn2)n1	-8%
COc1ccccc1CC(=O)N[C@@H]1CN(C)C[C@H]1CN(C)C	7%
O=C(c1ccc(C(F)(F)F)cc1)N1CCC(Oc2ncccc2C(=O)N2CCCCC2)C1 (stereo unspecified)	2%
O=C(c1ccccc1Cl)N1CCC(c2n[nH]c(=O)n2-c2ccccc2)CC1	0%
Cc1noc(-c2ccc(N3CCC(CN4CCCC4=O)CC3)nc2)n1	-11%
c1cc(-c2nc3c(c(NCc4cn5c(n4)SCC5)n2)CCNCC3)ccn1	0%
COc1ccc(OC)c(Nc2ncncc2-c2nc(-c3ccccc3)no2)c1	-16%
CCNC(=O)[C@@H]1C[C@H](NC(=O)Cc2ccccc2F)CN1C1CCOCC1	0%
Cc1cccc([C@H]2C[C@@H](O)[C@@H](O)[C@@H]2NS(C)(=O)=O)c1	0%[70.6 µM]
O=C(NCC1CC1)C1CCCN(C2CCN(Cc3ccncc3)CC2)C1 (stereo unspecified)	-1%
O=C(Nc1ccc2c(c1)OCO2)C1CC(=O)N(c2n[nH]c3cc(Br)ccc23)C1 (stereo unspecified)	1%
O=C(NC1CCCCC1)N1Cc2[nH]cnc2C[C@H]1c1nc(-c2ccc(F)c(Cl)c2)no1	-19%
CN(C)CC1(COc2ccc(S(C)(=O)=O)cc2)C[C@@H](O)[C@@H](O)C1 (stereo partly specified)	-20%[70.6 µM]
O=C(c1cc(F)ccc1F)N1C[C@@H](CO)[C@H](c2ccncc2)C1	1%
CC(=O)NC1(C)CN(Cc2ccc(-c3cccc(F)c3)s2)C1	-2%[70.6 µM]
COC(=O)C1=C(C)N(Cc2ccc(Br)cc2)C(=O)CC1c1ccccc1Cl (stereo unspecified)	0%
OC(COc1ccccc1CNCC1CCOCC1)CN1CCSCC1 (stereo unspecified)	-6%
Cc1cc(C)n(CCC(=O)NCC2CCN(c3cc(-c4ccc(Cl)cc4)[nH]n3)CC2)n1	-20%
CCN1c2cc(C(=O)NCc3ccc4c(c3)OCO4)ccc2C(=O)N2CCCCCC21 (stereo unspecified)	-14%

Part of the list above in order of SMILES length, low to high:
SMILES	hNpr1 antagonist
CNC(=O)N1CCC(C2CCN(C(=O)c3cscn3)C2)CC1 (stereo unspecified)	1%
Cc1noc(-c2ccc(N3CCC(CN4CCCC4=O)CC3)nc2)n1	-11%
Cc1nc(C2CCCN(C(=O)Cc3ccc(S(C)(=O)=O)cc3)C2)n[nH]1 (stereo unspecified)	3%
CN(C)CC1(COc2ccc(S(C)(=O)=O)cc2)C[C@@H](O)[C@@H](O)C1 (stereo partly specified)	-20%[70.6 µM]
O=C(Nc1ccc2c(c1)OCO2)C1CC(=O)N(c2n[nH]c3cc(Br)ccc23)C1 (stereo unspecified)	1%

Further results
SMILES	hNpr1 antagonist
CCC(C(=O)NC1CCN(c2cc(C(F)(F)F)nc(C)n2)CC1)c1ccccc1 (stereo unspecified)	0%
N[C@H]1CCN2C(=O)c3cc(-c4ccc(F)cc4F)ccc3NC(=O)[C@H]12	0%[70.6 µM]
O=C(Cn1ccn2nc(-c3ccccc3)c(CO)c2c1=O)Nc1ccccc1Cl	2%
Cc1nc(-c2cn(C3CCCN(C(=O)COc4ccc(F)cc4)C3)nn2)no1 (stereo unspecified)	-1%
COCCCn1c(C)cc(C(=O)N2CCCCCCNC(=O)CC2)c1C	2%
COc1ccc2c(c1)c(CN1C[C@@H](C(N)=O)[C@H](c3nc(C)no3)C1)cn2C(C)C	0%
Cc1ccc(C2Cn3cnc(C(=O)N4CCC(C(=O)NCc5cccs5)CC4)c3CO2)cc1 (stereo unspecified)	0%
COc1ccccc1-c1cc2[nH]ccc2c(C(=O)NCc2c(C)cc(C)[nH]c2=O)n1	-4%[70.6 µM]
O=C1CC(c2ccccc2)N(C(=O)C2CC2)CCCN(S(=O)(=O)c2cccs2)CCN1 (stereo unspecified)	-1%
CCc1ccc(NC(=O)c2ccc3c(c2)N(C)C2CCCCCN2C3=O)cc1 (stereo unspecified)	-14%
CCCN(CC1CCOC1)C(=O)Nc1cc(F)ccc1F (stereo unspecified)	-1%
COc1ccc(OC)c(S(=O)(=O)N2CCCOCCNC(=O)[C@@H]3CCC[C@@H]32)c1	0%
O=C(NCc1nnc2ccc(-c3ccccc3)nn12)c1cccc(C(F)(F)F)c1	-11%
O=C(c1ccncc1)N1CCCCCCn2c(nnc2-c2ccc(F)cc2)CC1	3%
CC[C@@]1(O)CCN(C(=O)c2[nH]nc(-c3ccc(Cl)cc3)c2C)C[C@H]1O	5%
O=C(NC1C[C@H]2CC[C@@H](C1)N2C(=O)C1CCOCC1)c1ccc(F)cc1 (stereo partly specified)	1%
CCc1ccc(N2CC(c3noc(-c4ccc(OC)cc4OC)n3)CC2=O)cc1 (stereo unspecified)	-23%
O=C(NC1CCCCC1)c1cnc2c(c1)N([S+](=O)([O-])c1cccnc1)CCC2	4%[70.6 µM]
O=C(NC1CCCN(c2cc(-c3ccc(Cl)cc3)[nH]n2)C1)c1ccc2ncccc2c1 (stereo unspecified)	u
O=C1c2c(nc(CNCc3cnccn3)n2Cc2ccccc2)NCCN1Cc1cccc(Cl)c1	-10%
CCc1cc(C(=O)N2CCCC(c3nnc(Cn4ccnc4)n3C)C2)ccn1 (stereo unspecified)	3%
O=C(Cn1nc2c(cc1=O)CCCCC2)NCCn1cnc2ccccc2c1=O	5%
COCCN1CCC(N2CCN(S(=O)(=O)c3ccccc3C)CC2)C1=O (stereo unspecified)	1%
O=C(NCc1nnc2ccc(-c3ccccc3)nn12)c1ccccn1	7%
CNS(=O)(=O)c1ccc(CN(CCOC)Cc2ccc(C)cc2)cc1	-4%

Among those listed so far, these contain a thiophene ring, fused or not:
SMILES	hNpr1 antagonist
CC(=O)NC1(C)CN(Cc2ccc(-c3cccc(F)c3)s2)C1	-2%[70.6 µM]
Cc1ccc(C2Cn3cnc(C(=O)N4CCC(C(=O)NCc5cccs5)CC4)c3CO2)cc1 (stereo unspecified)	0%
O=C1CC(c2ccccc2)N(C(=O)C2CC2)CCCN(S(=O)(=O)c2cccs2)CCN1 (stereo unspecified)	-1%

Further records.
SMILES	hNpr1 antagonist
CCN1C(=O)CCc2cc(NC(=O)c3ccc(OC)cc3C)ccc21	-2%
COc1cccc(NC(=O)c2ccc3c(c2)NC(C)(CCCCN2CCOCC2)CO3)c1 (stereo unspecified)	-5%[70.6 µM]
Cc1ccc(CN2C(=O)OC(c3cccc(NC(=O)c4ccccc4)c3)C2C(=O)NCCC(C)C)cc1 (stereo unspecified)	-10%
O=C(Nc1ccc(Oc2ccccc2)cc1)O[C@@H]1CO[C@H]2[C@@H]1OC[C@@H]2n1nnnc1-c1ccc(-c2ccccc2)cc1	0%
CC(=O)Nc1ccc(CN2CCC[C@H]2c2nc(-c3ccnc(N4CCC(C(N)=O)CC4)c3)no2)cc1	2%
COc1ccccc1N1CCN(C(=O)C[C@@H]2CCNC[C@@H]2Cc2cc(COc3ccccc3)on2)CC1	1%
Cc1ccc([S+](=O)([O-])N2CCc3nc(-c4ccc(Cl)cc4)nc(-c4ccccc4)c3C2)cc1	-2%
Cn1cc(-c2ccncc2)cc1C(=O)N1CCN(c2ccc(F)cc2)CC1	u
Cc1ccc(S(=O)(=O)N2CCCC(CCC(=O)NCc3ccccc3)C2)cc1 (stereo unspecified)	5%
CN(Cc1ccccc1)Cc1cc(C[C@H]2CNCC[C@H]2CC(=O)NCc2cccs2)no1	-14%
COc1cccc(-c2cc3c(=O)n(CCNC(=O)c4ccoc4)ccn3n2)c1	-21%
COc1ccc(OCc2nc(C3CN(C(=O)C4(c5ccc(OC)cc5)CC4)C3)no2)cc1	-30%
CCCN1CCc2[nH]cnc2C12CCN(Cc1ccc(C3CCCCO3)o1)CC2 (stereo unspecified)	10%
Cc1nc(C2CCCN(C(=O)CNC(N)=O)C2)cc(N2CCCC2)n1 (stereo unspecified)	5%
CCn1cc(-c2ccc(F)cc2)cc1C(=O)NCCOC	-18%
C#CCN(C)C[C@@H]1C=C(C)[C@H](Cc2nnc(-c3ccc(C)cc3)o2)C[C@H]1C(C)C	2%[70.6 µM]
CC(C)c1cc(NCc2cccnc2-n2cncn2)n2nccc2n1	0%
O=C(CN1C(=O)CNC1=O)N[C@H](c1ccc2c(c1)CCO2)C1CC(O)C1 (stereo partly specified)	1%
COCc1nc(C2CCCN(C(=O)c3ccc(OC)cc3OC)C2)no1 (stereo unspecified)	-1%
Cc1oc2c(c1C(=O)N1CC(C)(C)C(C)(O)C1)C(=O)CCC2 (stereo unspecified)	4%
CSCc1noc(CNC(=O)CC(c2ccccc2)c2ccccc2Cl)n1 (stereo unspecified)	-10%
c1ccc(CO[C@H]2COCCN(c3nc4ccccc4s3)C2)cc1	-4%[70.6 µM]
Cc1cccc(C(=O)N2C(C(=O)NCC(C)C)COC23CCN(C(=O)C(C)(C)C)CC3)c1 (stereo unspecified)	2%
Cc1ccc(C2Cn3nnc(-c4noc(-c5ccc(C)s5)n4)c3CO2)cc1 (stereo unspecified)	18%
O=C(NC1CCCCC1)[C@H]1O[C@H](CCN2CCN(c3ccccn3)CC2)CC[C@@H]1O	2%[70.6 µM]

Next part
SMILES	hNpr1 antagonist
Cc1nc(-c2cnccn2)n(CC(=O)Nc2ccc(F)c(Cl)c2)c(=O)c1C	-11%
COc1ccc(C(=O)N2CCCC(c3nn(C)c(=O)n3-c3ccccc3)C2)cn1 (stereo unspecified)	4%
O=C(CCC1CCCC1)NC1CCN(c2cn[nH]c(=O)c2)CC1	7%
Cn1cnc2cc(-c3ccccc3)cc(C(=O)NCc3cccnc3)c21	-5%[70.6 µM]
CCOC(=O)N1CCC(NC(=O)c2cn(CC3CCCNC3)nn2)CC1 (stereo unspecified)	0%
Cc1cn2nc(C(=O)N3CCC(NC(=O)c4ccc(C#N)cc4)CC3)cc2c(=O)[nH]1	-1%
CCc1noc(-c2cn(C3CCN(C(=O)c4ccoc4)CC3)nn2)n1	0%
COc1ccccc1C(=O)NCCC1CCN(C(=O)Nc2ccccc2C)CC1	2%
O=C(NCc1cccnc1)C1CCC(=O)N1C1CCN(C(=O)c2ccc(F)cc2)CC1 (stereo unspecified)	-1%
O=S(=O)(c1cccc2c1OCCO2)N1CCCn2nc(CO)cc2C1	0%
COCCNC(=O)[C@@H]1C[C@H](Oc2ccccc2)CN1C(=O)CCc1nc2ccccc2[nH]1	1%
CN(Cc1ccon1)C(=O)c1ccc2c(c1)[nH]c(=O)n2C1CCC(O)CC1 (stereo unspecified)	5%
O=C(O)c1ccc(C2CCCN(C(=O)c3cccc4cccnc34)C2)cc1 (stereo unspecified)	-2%

Three compounds from above, arranged by their value in hNpr1 antagonist, high to low.
SMILES	hNpr1 antagonist
CN(Cc1ccon1)C(=O)c1ccc2c(c1)[nH]c(=O)n2C1CCC(O)CC1 (stereo unspecified)	5%
COc1ccccc1C(=O)NCCC1CCN(C(=O)Nc2ccccc2C)CC1	2%
CCc1noc(-c2cn(C3CCN(C(=O)c4ccoc4)CC3)nn2)n1	0%
